Screening data: PubChem BioAssay, National Center for Advancing Translational Sciences (NCATS)
nsP2pro inh = blocks chikungunya virus nsP2 protease peptide cleavage. FRET peptide cleavage, nsP2pro, fluorescence 1 h. Potency, µM (highest dose often 24.9 µM), without a hit: at the highest dose activity change, negative = inhibition, hits mostly inhibitors. 31,000 compounds, 1.1% hits; active means well fitted inhibition curve with a large enough effect; inconclusive means small, poorly fitted or top-dose-only effect; inactive means no such curve, though single readings can be large or run the other way; further: nearly all actives have a fitted effect of over 60% in size; a reference inhibitor and vehicle were the controls
Target sequence (Q8JUX6 whole entry, looked up): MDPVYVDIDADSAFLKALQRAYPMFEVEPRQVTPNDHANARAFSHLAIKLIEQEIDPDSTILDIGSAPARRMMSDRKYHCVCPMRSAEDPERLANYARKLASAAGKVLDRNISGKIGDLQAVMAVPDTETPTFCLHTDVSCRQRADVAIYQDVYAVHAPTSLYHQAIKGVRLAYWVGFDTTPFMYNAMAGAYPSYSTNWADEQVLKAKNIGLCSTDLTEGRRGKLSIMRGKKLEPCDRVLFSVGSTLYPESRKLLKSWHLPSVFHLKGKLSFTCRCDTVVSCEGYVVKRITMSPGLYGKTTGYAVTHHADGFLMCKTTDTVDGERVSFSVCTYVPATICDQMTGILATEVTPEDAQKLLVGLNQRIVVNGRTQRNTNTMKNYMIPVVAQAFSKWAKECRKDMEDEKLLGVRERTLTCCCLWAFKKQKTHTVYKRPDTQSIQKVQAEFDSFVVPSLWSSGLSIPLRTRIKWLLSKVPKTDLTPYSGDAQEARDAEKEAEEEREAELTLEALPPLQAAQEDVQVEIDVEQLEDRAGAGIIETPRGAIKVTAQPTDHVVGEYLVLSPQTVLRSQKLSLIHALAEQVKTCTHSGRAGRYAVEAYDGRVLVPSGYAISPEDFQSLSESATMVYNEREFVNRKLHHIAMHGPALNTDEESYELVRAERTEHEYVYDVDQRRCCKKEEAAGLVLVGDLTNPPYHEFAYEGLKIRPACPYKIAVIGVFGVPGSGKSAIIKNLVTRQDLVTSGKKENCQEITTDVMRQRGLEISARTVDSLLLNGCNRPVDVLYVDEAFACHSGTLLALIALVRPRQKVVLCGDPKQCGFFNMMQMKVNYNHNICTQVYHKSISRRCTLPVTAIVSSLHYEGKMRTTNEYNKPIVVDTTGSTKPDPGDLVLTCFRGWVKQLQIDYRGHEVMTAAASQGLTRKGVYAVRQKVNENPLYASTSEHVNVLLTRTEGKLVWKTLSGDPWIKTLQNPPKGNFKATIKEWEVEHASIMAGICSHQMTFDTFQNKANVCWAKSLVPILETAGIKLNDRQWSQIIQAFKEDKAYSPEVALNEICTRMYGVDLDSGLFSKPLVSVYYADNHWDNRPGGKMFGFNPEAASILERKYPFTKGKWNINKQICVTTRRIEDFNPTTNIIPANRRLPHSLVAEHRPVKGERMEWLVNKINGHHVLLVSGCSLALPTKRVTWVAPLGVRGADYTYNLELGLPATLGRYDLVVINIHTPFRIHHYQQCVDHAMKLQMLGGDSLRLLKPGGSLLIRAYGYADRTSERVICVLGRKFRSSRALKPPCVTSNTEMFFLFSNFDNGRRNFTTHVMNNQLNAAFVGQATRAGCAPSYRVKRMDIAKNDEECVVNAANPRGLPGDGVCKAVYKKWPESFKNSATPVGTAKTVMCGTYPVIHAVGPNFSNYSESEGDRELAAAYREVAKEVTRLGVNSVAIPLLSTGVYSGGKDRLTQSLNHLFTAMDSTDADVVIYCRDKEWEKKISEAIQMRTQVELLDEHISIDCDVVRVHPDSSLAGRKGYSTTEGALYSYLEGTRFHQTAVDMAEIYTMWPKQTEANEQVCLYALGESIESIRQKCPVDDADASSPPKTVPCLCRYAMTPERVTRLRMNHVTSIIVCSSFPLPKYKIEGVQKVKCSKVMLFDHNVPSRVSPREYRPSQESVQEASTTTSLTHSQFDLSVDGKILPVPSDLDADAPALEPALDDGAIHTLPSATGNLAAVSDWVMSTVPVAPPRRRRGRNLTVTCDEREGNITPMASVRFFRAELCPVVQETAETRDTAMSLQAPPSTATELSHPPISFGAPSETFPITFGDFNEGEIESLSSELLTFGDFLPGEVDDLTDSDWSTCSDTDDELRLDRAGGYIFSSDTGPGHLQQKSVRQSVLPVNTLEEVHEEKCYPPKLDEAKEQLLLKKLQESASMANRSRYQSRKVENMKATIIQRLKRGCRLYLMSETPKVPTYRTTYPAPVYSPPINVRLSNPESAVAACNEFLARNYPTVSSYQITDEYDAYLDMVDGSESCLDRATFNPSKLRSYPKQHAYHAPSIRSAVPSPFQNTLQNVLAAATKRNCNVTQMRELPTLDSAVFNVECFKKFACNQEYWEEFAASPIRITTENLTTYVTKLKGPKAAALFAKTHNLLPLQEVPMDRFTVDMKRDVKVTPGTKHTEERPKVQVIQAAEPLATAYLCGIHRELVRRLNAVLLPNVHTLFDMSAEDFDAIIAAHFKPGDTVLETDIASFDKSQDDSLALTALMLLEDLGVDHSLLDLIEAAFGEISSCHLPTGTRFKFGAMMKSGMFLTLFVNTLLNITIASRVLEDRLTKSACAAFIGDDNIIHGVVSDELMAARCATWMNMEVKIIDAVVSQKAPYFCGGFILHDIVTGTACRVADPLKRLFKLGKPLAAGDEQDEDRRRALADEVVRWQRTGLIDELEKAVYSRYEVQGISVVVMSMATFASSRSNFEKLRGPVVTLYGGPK
* hit, by the source's call; i = inactive; ? = inconclusive; & = joins results of further samples; [ ] = dose if it differs, or a comment. On the % scale 0 is the no-effect control and ±100 the full control effect; potency means the concentration at half of the fitted maximal effect. An excerpt (hit frequency here may not be typical).

#1 OC(CNCCc1c[nH]c2ccccc12)Cn1c2ccccc2c2ccccc21 (centres undefined)
  nsP2pro inh = ?

#2 C=CC(=O)N1CCN(C(=O)CNc2cc(-c3ccccc3Cl)c(Cl)cc2OC)CC1
  nsP2pro inh = -2.3%

#3 Cc1cc(=O)oc2cc(O)ccc12
  nsP2pro inh = -2.1%

#4 CC[C@H](C(=O)Nc1ccccc1N1CCCC1)c1ccccc1
  nsP2pro inh = ?

#5 C=Cc1ccccc1
  nsP2pro inh = -7.2%

#6 O=C(NCC1(N2CCN(c3ccccc3)CC2)CCOCC1)c1cccnc1Sc1ccccc1
  nsP2pro inh = -0.7%

#7 O=C(O)c1ccccc1NC(=O)N1CCC(c2ccccc2C(F)(F)F)CC1
  nsP2pro inh = -7.0%

#8 Cc1cc(C)c(-n2cc(C)c3c(Cl)nc(C)nc32)c(C)c1
  nsP2pro inh = -13.5%

#9 CCOCc1cc(OC)c(-c2ccc(C[C@H](NC(=O)c3c(F)cccc3F)C(=O)O)cc2)c(OC)c1
  nsP2pro inh = -7.4%

#10 COc1cc2c(c(OC)c1OC)-c1c(cc(OC)c(OC)c1OC)CC(C)C(C)C2 (centres undefined)
  nsP2pro inh = 4.1%

#11 COCCOc1ccc2c(c1)ncn2-c1ccc2cccc(N3CCC(N)CC3)c2n1
  nsP2pro inh = 100.0%[activator]

#12 CC1(C)O[C@@H]2C[C@H]3[C@@H]4C[C@H](F)C5=CC(=O)C=C[C@]5(C)[C@@]4(F)[C@@H](O)C[C@]3(C)[C@]2(C(=O)CO)O1
  nsP2pro inh = -4.6%

#13 O=C(O)c1ccc(Nc2ncc3c(n2)-c2ccc(Cl)cc2C(c2c(F)cccc2F)=NC3)cc1
  nsP2pro inh = ?

#14 NC(=O)[C@H]1CCS[C@@H]2C[C@]3(CCCN3C(=O)Cc3ccc(NC(=O)COc4ccc(Cl)cc4Cl)cc3)C(=O)N12
  nsP2pro inh = 4.6%

#15 COC(=O)N/N=C/c1c[n+]([O-])c2ccccc2[n+]1[O-]
  nsP2pro inh = 6.3%

#16 CCCCOc1cc(C(=O)OCCN(CC)CC)ccc1N
  nsP2pro inh = -7.7%&1.6%

#17 Cc1nnc(-c2sc(NC(=O)[C@H](C(C)C)n3c(=O)[nH]c4ccccc4c3=O)nc2C)o1
  nsP2pro inh = -12.0%

#18 O=C(O)c1ccc(-n2nc(-c3ccccc3O)nc2-c2ccccc2O)cc1
  nsP2pro inh = 8.4%

#19 C[C@@H]1CCC[C@H](C)N1CCCC(O)(c1ccccc1)c1ccccn1 (some centres undefined)
  nsP2pro inh = -21.6%

#20 Cn1cnc(-c2cc3nccc(Oc4ccc(NC(=S)NC(=O)Cc5ccccc5)cc4F)c3s2)c1
  nsP2pro inh = 43.4%[activator]

#21 C[C@H]1[C@H](C)CC[C@]2(C(=O)O)CC[C@]3(C)C(=CC[C@@H]4[C@@]5(C)C[C@@H](O)[C@H](O)[C@@](C)(CO)[C@@H]5CC[C@]43C)[C@H]12
  nsP2pro inh = ?

#22 CNc1ccc([N+](=O)[O-])c(Nc2ccc3[nH]ncc3c2)n1
  nsP2pro inh = 33.8%[activator]

#23 CNc1nccc(-c2cccnc2Oc2cc(C(=O)Nc3cccc(C(F)(F)F)c3)ccc2C)n1
  nsP2pro inh = 48.6%[activator]

#24 CS(=O)(=O)NCC1CCC(Nc2nc3c(s2)CCSc2ccccc2-3)CC1 (centres undefined)
  nsP2pro inh = ?

#25 CCc1ccccc1OC[C@@H](O)CN[C@H]1CCCc2ccccc21
  nsP2pro inh = 9.3%

No new results follow: an excerpt of the list.
#1 OC(CNCCc1c[nH]c2ccccc12)Cn1c2ccccc2c2ccccc21 (centres undefined)
  nsP2pro inh = ?

#2 C=CC(=O)N1CCN(C(=O)CNc2cc(-c3ccccc3Cl)c(Cl)cc2OC)CC1
  nsP2pro inh = -2.3%

#3 Cc1cc(=O)oc2cc(O)ccc12
  nsP2pro inh = -2.1%

#4 CC[C@H](C(=O)Nc1ccccc1N1CCCC1)c1ccccc1
  nsP2pro inh = ?

Reprinted at random: two records from the list
#25 CCc1ccccc1OC[C@@H](O)CN[C@H]1CCCc2ccccc21
  nsP2pro inh = 9.3%

#17 Cc1nnc(-c2sc(NC(=O)[C@H](C(C)C)n3c(=O)[nH]c4ccccc4c3=O)nc2C)o1
  nsP2pro inh = -12.0%

Next part.
#26 COc1ccc(C=CC(=O)O)cc1
  nsP2pro inh = -12.2%

#27 CCc1cc2c(cc1N1CCC(N3CCOCC3)CC1)C(C)(C)c1[nH]c3cc(C#N)ccc3c1C2=O
  nsP2pro inh = -3.8%&15.0%[10 µM]

#28 CN(c1nccc(=O)[nH]1)C1CCN(c2nc3ccccc3n2Cc2ccc(F)cc2)CC1
  nsP2pro inh = 7.9%&-0.2%

#29 Cc1ccc(C(=O)Nc2cccc(C(F)(F)F)c2)cc1-c1ccc2nc(NCCN3CCOCC3)ncc2c1
  nsP2pro inh = 106.2%[activator]

#30 CCOC(=O)[C@H](CCc1ccccc1)N[C@@H](C)C(=O)N1C(=O)N(C)C[C@H]1C(=O)O
  nsP2pro inh = ?

#31 O=C(Nc1cc(-c2ccccc2)nn1-c1ccccc1F)c1ccc([N+](=O)[O-])cc1
  nsP2pro inh = 9.0%

#32 Oc1cc(-c2nc(-c3ccccc3)[nH]c2-c2ccncc2)ccc1Cl
  nsP2pro inh = 37.2%

#33 O=C(CC1CC(c2ccc(F)cc2F)=NO1)N1CCOCC1 (centres undefined)
  nsP2pro inh = -6.1%

#34 NS(=O)(=O)c1ccc(N2CCCCS2(=O)=O)cc1
  nsP2pro inh = -5.3%

#35 Nc1ncnc2c1c(-c1ccc(Oc3ccccc3)cc1)cn2C1CCCC1
  nsP2pro inh = i

#36 CN(C)CCn1cc(S(=O)(=O)c2cccc(F)c2)c2cccnc21
  nsP2pro inh = -9.8%

#37 NC(N)=NCCC[C@H](NC(=O)c1sccc1NS(=O)(=O)c1cccc2nsnc12)C(=O)O
  nsP2pro inh = -15.0%

#38 C[C@@H]1C[C@H]2[C@@H]3CCC4=CC(=O)C=C[C@]4(C)[C@@]3(Cl)[C@@H](O)C[C@]2(C)[C@@]1(OC(=O)c1ccco1)C(=O)CCl
  nsP2pro inh = -9.0%

#39 COc1ccc2c(c1)C[C@H](C(=O)Nc1ccc(-c3cn[nH]c3)cc1OCCN(C)C)CO2
  nsP2pro inh = 173.9%[activator]

#40 Cc1ccccc1N1CCN(CCc2nnc3n2CCCC3)CC1
  nsP2pro inh = 0.1%

#41 COc1cc(CCc2cc(NC(=O)c3ccc(N4C[C@@H](C)N[C@@H](C)C4)cc3)n[nH]2)cc(OC)c1
  nsP2pro inh = 242.3%[activator]

#42 COc1ccc(S(=O)(=O)N2CCC[C@H]2C(=O)Nc2cc(C)cc(C)c2)cc1
  nsP2pro inh = ?

#43 NC(Cc1c[nH]c2ccc(O)cc12)C(=O)O (centres undefined)
  nsP2pro inh = ?

#44 O=P(O)(O)OP(=O)(O)O
  nsP2pro inh = -2.2%

#45 O=C(Nc1ccc(N2CCC(C(=O)N3CCOCC3)CC2)cc1)c1cnc(Oc2ccccc2)nc1
  nsP2pro inh = -10.6%

#46 O=C(O)Cc1sc(-c2ccccc2)nc1-c1ccc(Cl)cc1
  nsP2pro inh = -0.4%

#47 CC(=O)OCC(=O)[C@@]1(O)CC[C@H]2[C@@H]3CCC4=CC(=O)C=C[C@]4(C)[C@@]3(F)[C@@H](O)C[C@@]21C
  nsP2pro inh = -4.8%

#48 C=Cc1cc(O)cc2nc(-c3ccc(O)c(F)c3)oc12
  nsP2pro inh = 26.8%

#49 Cc1cc(C)cc(-c2cnc3cc(Cl)c(-c4cccc(O)c4)cc3c2OCCCN)c1
  nsP2pro inh = 25.4%

#50 Cc1cc(Nc2cc(N3CCN(C)CC3)nc(/C=C/c3ccccc3)n2)n[nH]1
  nsP2pro inh = 447.7%[activator]

#51 CN(c1ccc(NC(=O)Nc2ccccc2)cc1)S(=O)(=O)c1cnn(-c2ccc(F)cc2)c1
  nsP2pro inh = 11.7%

#52 CC(C)NCCCC1(C(N)=O)c2ccccc2-c2ccccc21
  nsP2pro inh = -6.5%

#53 Cc1cc2c(F)c(Oc3ncnn4cc(OCC(C)O)c(C)c34)ccc2[nH]1 (centres undefined)
  nsP2pro inh = 51.6%[activator]

#54 CCC(=O)Nc1cccc(Oc2nc(Nc3ccc(N4CCN(C)CC4)cc3OC)ncc2Cl)c1
  nsP2pro inh = 15.8%

#55 CCn1cc(C(=O)O)c(=O)c2cc(F)c(N3CCNC(C)C3)c(F)c21 (centres undefined)
  nsP2pro inh = 6.7%

#56 COc1cc(C2Oc3cc(C4Oc5cc(O)cc(O)c5C(=O)C4O)ccc3OC2CO)ccc1O (centres undefined)
  nsP2pro inh = 36.7%[activator]

#57 CCOC(=O)N1CCC(N2CCC[C@@H](NC(=O)c3ccccc3C)C2)CC1
  nsP2pro inh = -17.7%

#58 Cc1c(-c2ccnn2C)cc(C(=O)NCc2ccc(S(C)(=O)=O)cn2)c(=O)n1-c1cccc(C(F)(F)F)c1
  nsP2pro inh = -13.3%[10 µM]

#59 CC(C)(C)NCC(O)COc1cccc2c1C[C@H](O)[C@H](O)C2 (some centres undefined)
  nsP2pro inh = -5.3%

#60 CCCCC(CC)COC(=O)c1ccccc1O (centres undefined)
  nsP2pro inh = 1.8%

#61 O=C1c2c(O)cccc2[C@@H]([C@@H]2O[C@H](CO)[C@@H](O)[C@H](O)[C@H]2O)c2cc(CO)cc(O)c21
  nsP2pro inh = 36.0%[activator]

#62 COC(=O)C1=C(C)NC(C)=C(C(=O)OCCN2CCN(C(c3ccccc3)c3ccccc3)CC2)C1c1cccc([N+](=O)[O-])c1 (centres undefined)
  nsP2pro inh = 2.2%

#63 CCN(CC)CCN(Cc1ccc(-c2ccc(C(F)(F)F)cc2)cc1)C(=O)Cn1c(SCc2ccc(F)cc2)nc(=O)c2c1CCC2
  nsP2pro inh = 169.7%[activator]

#64 CC[C@H](C)[C@H](N)C(=O)O
  nsP2pro inh = -19.9%

#65 CCCCN(CCCC)CCCOC(=O)c1ccc(N)cc1
  nsP2pro inh = -8.6%

#66 CCOC(=O)c1ccccc1O
  nsP2pro inh = 10.6%

#67 C=CCN1C[C@H](C(=O)N(CCCN(C)C)C(=O)NCC)C[C@@H]2c3cccc4[nH]cc(c34)C[C@H]21
  nsP2pro inh = ?

#68 O=C(c1cc(Cc2n[nH]c(=O)c3ccccc23)ccc1F)N1CCCNCC1
  nsP2pro inh = -9.7%

#69 O=C(NC1(c2ccccc2)CC1)c1c(CN2CCC(N3CCCCC3)CC2)c(-c2cccc(C(F)(F)F)c2)nc2cc(Br)ccc12
  nsP2pro inh = 65.5%[activator]

#70 CCN(CC)C(=O)C1CN2CCc3cc(OC)c(OC)cc3C2CC1OC(C)=O (centres undefined)
  nsP2pro inh = -11.3%

#71 CCOC1OC(=O)C[C@H]1NC(=O)[C@@H]1CCCN1C(=O)[C@@H](NC(=O)c1ccc(N)c(Cl)c1)C(C)(C)C (some centres undefined)
  nsP2pro inh = -24.7%

#72 CCOc1ccc2nc(N3CCC(C(=O)Nc4ccccc4CC)CC3)sc2c1
  nsP2pro inh = -18.3%

#73 COc1ccc(-c2ccc3c(N4CCOCC4C)nc(N4CCOCC4C)nc3n2)cc1CO (centres undefined)
  nsP2pro inh = ?

#74 CC(C)=CCC[C@](C)(O[C@@H]1O[C@H](CO)[C@@H](O)[C@H](O)[C@H]1O)[C@H]1CC[C@]2(C)[C@@H]1[C@H](O)C[C@@H]1[C@@]3(C)CC[C@H](O)C(C)(C)[C@@H]3CC[C@]12C
  nsP2pro inh = -0.5%

#75 O=C(CCc1nnc2n(Cc3ccc(Cl)cc3)c(=O)c3ccccc3n12)NCCC1=CCCCC1
  nsP2pro inh = 4.9%

Among those listed so far, two have a thiophene ring, fused or not.
#20 Cn1cnc(-c2cc3nccc(Oc4ccc(NC(=S)NC(=O)Cc5ccccc5)cc4F)c3s2)c1
  nsP2pro inh = 43.4%[activator]

#37 NC(N)=NCCC[C@H](NC(=O)c1sccc1NS(=O)(=O)c1cccc2nsnc12)C(=O)O
  nsP2pro inh = -15.0%

The list goes on:
#76 CC(=O)N(C)C1(c2ccccc2)CCN(CCC[C@]2(c3ccc(Cl)c(Cl)c3)CCCN(C(=O)c3ccccc3)C2)CC1
  nsP2pro inh = 41.4%

#77 CC(=O)Nc1ccc(OC(=O)c2ccccc2OC(C)=O)cc1
  nsP2pro inh = -3.4%

#78 CCN1CCN(c2ccc(Nc3cc(N(C)C(=O)Nc4c(Cl)c(OC)cc(OC)c4Cl)ncn3)cc2)CC1
  nsP2pro inh = 1.9%&41.8%

#79 CN(C)C(=O)CNC(=O)Cc1ccccc1
  nsP2pro inh = 0.3%

#80 CCOc1nc2cccc(C(=O)O)c2n1Cc1ccc(-c2ccccc2-c2noc(=O)[nH]2)cc1
  nsP2pro inh = ?

#81 CCCCOCCOC(=O)c1cccnc1
  nsP2pro inh = 1.7%

#82 Cc1cc(F)ccc1-c1nc(NCCN=C(N)NC#N)nc2c1ccc(=O)n2-c1c(F)cccc1F
  nsP2pro inh = 19.2%

#83 CN[C@@H]1[C@H](O)[C@H](NC)[C@H]2O[C@@]3(O)C(=O)C[C@@H](C)O[C@H]3O[C@@H]2[C@H]1O
  nsP2pro inh = -5.0%

#84 CC(=O)NCC1CN(c2ccc(-c3ccc(CNCc4cn[nH]n4)cc3)c(F)c2)C(=O)O1 (centres undefined)
  nsP2pro inh = 10.3%

#85 CCCCCCCCCCCCOCCOCCOCCOCCOCCOCCOCCOCCOCCO
  nsP2pro inh = 3.6%

#86 CCCOc1ccc(C(=O)OCCN(CC)CC)cc1N
  nsP2pro inh = -2.4%

#87 CNC(=O)c1cc(Oc2ccc(NC(=O)Nc3ccc(Cl)c(C(F)(F)F)c3)c(F)c2)ccn1
  nsP2pro inh = 57.8%&43.5%[activator]

#88 CN1[C@@H]2CC[C@H]1CC(NC(=O)n1c(=O)[nH]c3ccccc31)C2 (some centres undefined)
  nsP2pro inh = -1.7%

#89 CCn1ccc(NS(=O)(=O)c2ccc(N)cc2)nc1=O
  nsP2pro inh = 22.2%

#90 CN(C)C(=O)c1cc2cnc(Nc3ccc(N4CCNCC4)cn3)nc2n1C1CCCC1
  nsP2pro inh = 25.8%[10 µM]
